Source: PubChem (Broad Institute)
Ran FRET = inhibitors of Ran–importin-beta complex formation, primary screen, biochemical, CFP-Ran/YFP-importin-beta FRET, RCC1, cell-free (AID 434961). inhibition, %. Regulator of chromosome condensation (Homo sapiens) + GTP-binding nuclear protein Ran …. 0.2% of 7,700 active. CFP-Ran/YFP-importin-beta FRET, cell-free; hits give high values;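 active = more than half of the replicate wells above 15% inhibition; inconclusive = exactly half above it; inactive = fewer than half above it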;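 also: 0% = DMSO wells and 100% inhibition = RanGDP control wells on each plate; stock of unstated strength diluted about 400-fold; mean of two wells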
Starred values were filed as active, the others as inactive; ? = inconclusive. Not all compounds are listed. The share of hits here may be higher or lower than overall.

SMILES	Ran FRET
C[C@@H]1CN([C@@H](C)CO)C(=O)c2cc(NC(=O)Nc3cccc4ccccc34)ccc2O[C@@H]1CN(C)C	-1.7
C[C@H]1CN([C@@H](C)CO)C(=O)c2cc(NC(=O)NC3CCCCC3)ccc2O[C@@H]1CN(C)Cc1ccncc1	1.7
C[C@H](CO)N1C[C@H](C)[C@@H](CN(C)C(=O)Nc2ccc(F)cc2)Oc2ccc(NC(=O)Cn3cnnn3)cc2C1=O	-2.0
C[C@@H]1CN([C@H](C)CO)C(=O)c2cc(NC(=O)Nc3cccc4ccccc34)ccc2O[C@H]1CN(C)C(=O)Nc1ccc2c(c1)OCO2	-2.2
C[C@H](CO)N1C[C@H](C)[C@H](CN(C)C(=O)Nc2ccc(C(F)(F)F)cc2)Oc2ccc(NC(=O)Nc3ccc4c(c3)OCO4)cc2C1=O	-3.7
CNC[C@@H]1Oc2ccc(NS(=O)(=O)c3c(C)noc3C)cc2CC(=O)N([C@H](C)CO)C[C@@H]1C	-2.5
Cc1noc(C)c1NC(=O)Nc1cccc2c1O[C@@H](CN(C)C)[C@H](C)CN([C@H](C)CO)C2=O	-4.4
Cc1noc(C)c1S(=O)(=O)Nc1ccc2c(c1)C(=O)N([C@@H](C)CO)C[C@@H](C)[C@@H](CN(C)C(=O)NC(C)C)OCCCC[C@H](C)O2	2.8
Cc1noc(C)c1NC(=O)Nc1ccc2c(c1)C(=O)N([C@@H](C)CO)C[C@@H](C)[C@@H](CN(C)C)O2	-1.9
C[C@@H]1CN([C@@H](C)CO)C(=O)Cc2cc(NC(=O)C3CC3)ccc2O[C@H]1CN(C)Cc1ccc2c(c1)OCO2	-6.7
CC(C)NC(=O)Nc1ccc2c(c1)C(=O)N([C@@H](C)CO)C[C@H](C)[C@H](CN(C)C(=O)CCC(F)(F)F)OCCCC[C@@H](C)O2	3.1
C[C@@H]1CN([C@@H](C)CO)C(=O)c2cccc(NS(=O)(=O)c3cccs3)c2O[C@@H]1CN(C)Cc1ccc(Cl)c(Cl)c1	0.3
Cc1noc(C)c1S(=O)(=O)Nc1ccc2c(c1)C(=O)N([C@@H](C)CO)C[C@H](C)[C@@H](CN(C)C(=O)CCC(F)(F)F)OCCCC[C@H](C)O2	?
C[C@H](CO)N1C[C@H](C)[C@H](CN(C)S(=O)(=O)c2cccs2)OCCCC[C@H](C)Oc2ccc(N(C)C)cc2C1=O	3.1
C[C@@H]1CN([C@@H](C)CO)C(=O)CCCn2nncc2CO[C@H]1CN(C)S(=O)(=O)c1ccc2ccccc2c1	3.8
CNC[C@@H]1OCCCC[C@H](C)Oc2ccc(NC(=O)Nc3ccc4c(c3)OCO4)cc2C(=O)N([C@@H](C)CO)C[C@@H]1C	3.2
C[C@H]1CN([C@@H](C)CO)C(=O)c2cc(NC(=O)C3CC3)ccc2O[C@H]1CN(C)C(=O)Nc1cccc2ccccc12	3.0
Cc1noc(C)c1NC(=O)Nc1ccc2c(c1)C(=O)N([C@@H](C)CO)C[C@H](C)[C@H](CN(C)CC1CC1)O2	3.7
CNC[C@H]1OCCCC[C@@H](C)Oc2ccc(NC(=O)NC(C)C)cc2C(=O)N([C@H](C)CO)C[C@@H]1C	-3.3
C[C@H]1CCCCO[C@H](CN(C)C(=O)C2CCCCC2)[C@@H](C)CN([C@@H](C)CO)C(=O)c2cc(NC(=O)c3ccncc3)ccc2O1	-5.8
Cc1noc(C)c1S(=O)(=O)Nc1ccc2c(c1)C(=O)N([C@H](C)CO)C[C@@H](C)[C@@H](CN(C)C(=O)Nc1ccccc1)OCCCC[C@@H](C)O2	-2.5
C[C@H]1CN([C@@H](C)CO)C(=O)c2cccc(NC(=O)Nc3cccc4ccccc34)c2O[C@H]1CN(C)C(=O)Nc1ccc(C(F)(F)F)cc1	0.2
C[C@@H]1CN([C@H](C)CO)C(=O)c2cc(NS(=O)(=O)c3cn(C)cn3)ccc2O[C@@H](C)CCCCO[C@@H]1CN(C)C	0.0
C[C@@H]1CCCCO[C@H](CN(C)Cc2ccncc2)[C@@H](C)CN([C@@H](C)CO)C(=O)c2cc(NC(=O)c3ccncc3)ccc2O1	-2.5
C[C@@H]1CN([C@H](C)CO)C(=O)c2cccc(NC(=O)c3ccncc3)c2O[C@H]1CN(C)C	0.2

2 compounds picked at random from those above:
SMILES	Ran FRET
C[C@@H]1CN([C@H](C)CO)C(=O)c2cc(NC(=O)Nc3cccc4ccccc34)ccc2O[C@H]1CN(C)C(=O)Nc1ccc2c(c1)OCO2	-2.2
Cc1noc(C)c1NC(=O)Nc1cccc2c1O[C@@H](CN(C)C)[C@H](C)CN([C@H](C)CO)C2=O	-4.4

Further results follow:
SMILES	Ran FRET
C[C@@H]1CN([C@@H](C)CO)C(=O)c2cc(NC(=O)NC3CCCCC3)ccc2O[C@H]1CN(C)C(=O)Nc1ccccc1	-15
CC(C)NC(=O)N(C)C[C@H]1OCCCC[C@@H](C)Oc2ccc(NC(=O)CCCN(C)C)cc2C(=O)N([C@@H](C)CO)C[C@H]1C	6.2
C[C@H](CO)N1C[C@H](C)[C@H](CN(C)S(=O)(=O)c2ccc(F)cc2)Oc2ncc(-c3ccc(F)cc3)cc2C1=O	?
CC(C)NC(=O)Nc1ccc2c(c1)C(=O)N([C@H](C)CO)C[C@@H](C)[C@@H](CN(C)S(=O)(=O)c1ccccc1)OCCCC[C@H](C)O2	-0.1
Cc1noc(C)c1NC(=O)N(C)C[C@@H]1OCCCC[C@@H](C)Oc2ccc(N(C)C)cc2C(=O)N([C@H](C)CO)C[C@H]1C	-1.6
Cc1noc(C)c1S(=O)(=O)Nc1ccc2c(c1)CC(=O)N([C@H](C)CO)C[C@@H](C)[C@H](CN(C)C(=O)Nc1ccccc1)O2	3.3
C[C@@H]1CCCCO[C@H](CN(C)C(=O)CCC(F)(F)F)[C@@H](C)CN([C@H](C)CO)C(=O)c2cc(N(C)C)ccc2O1	0.3
Cc1noc(C)c1NC(=O)N(C)C[C@@H]1Oc2ncc(C#CCN(C)C)cc2C(=O)N([C@H](C)CO)C[C@@H]1C	-0.5
C[C@@H]1CN([C@@H](C)CO)C(=O)c2cccc(N(C)C)c2O[C@H]1CN(C)S(=O)(=O)c1ccccc1	3.4
C[C@@H]1CN([C@H](C)CO)C(=O)CCCn2cc(nn2)CO[C@H]1CN(C)C(=O)Nc1ccc(N2CCCCC2)cc1	3.4
C[C@H]1CN([C@@H](C)CO)C(=O)c2cc(NC(=O)Nc3ccccc3)ccc2O[C@@H]1CN(C)Cc1ccncc1	-2.4
C[C@@H]1CN([C@H](C)CO)C(=O)c2cc(NC(=O)Nc3ccccc3)ccc2O[C@@H](C)CCCCO[C@H]1CN(C)C(=O)Cc1ccccc1	-0.2
COc1ccc(CN(C)C[C@@H]2Oc3ccc(NC(=O)c4ccncc4)cc3CC(=O)N([C@H](C)CO)C[C@@H]2C)cc1	3.2
C[C@@H]1CN([C@@H](C)CO)C(=O)c2cccc(NC(=O)c3ccncc3)c2O[C@H]1CN(C)S(=O)(=O)c1cn(C)cn1	3.9
C[C@H](CO)N1C[C@H](C)[C@H](CN(C)C(=O)CCC(F)(F)F)OCCCC[C@H](C)Oc2ccc(NS(C)(=O)=O)cc2C1=O	1.1
C[C@@H]1CCCCO[C@@H](CN(C)S(=O)(=O)c2cn(C)cn2)[C@H](C)CN([C@@H](C)CO)C(=O)c2cc(NC(=O)c3ccccc3)ccc2O1	1.1
C[C@@H]1CN([C@@H](C)CO)C(=O)Cc2cc(NC(=O)Cc3cn(C)c4ccccc34)ccc2O[C@@H]1CN(C)Cc1ccc(C(=O)O)cc1	2.1
C[C@H](CO)N1C[C@H](C)[C@H](CN(C)C(=O)Nc2ccc3c(c2)OCO3)OCCCC[C@H](C)Oc2ccc(NS(C)(=O)=O)cc2C1=O	-11
Cc1noc(C)c1NC(=O)N(C)C[C@H]1Oc2c(NC(=O)c3nc4ccccc4s3)cccc2C(=O)N([C@H](C)CO)C[C@H]1C	7.5
C[C@H]1CN([C@@H](C)CO)C(=O)c2cccc(NC(=O)Nc3ccc(F)cc3)c2O[C@H]1CN(C)C(=O)NC1CCCCC1	4.1
C[C@@H]1CN([C@H](C)CO)C(=O)c2cc(N(C)C)ccc2O[C@@H](C)CCCCO[C@@H]1CN(C)C(=O)Nc1cccc2ccccc12	-1.3
C[C@H](CO)N1C[C@H](C)[C@@H](CN(C)C(=O)CCCN(C)C)OCCCC[C@H](C)Oc2ccc(NC(=O)CCCN(C)C)cc2C1=O	0.6
C[C@@H]1CN([C@@H](C)CO)C(=O)CCCn2cc(nn2)CO[C@@H]1CN(C)Cc1ccc2c(c1)OCCN2C	3.3
C[C@@H]1CN([C@@H](C)CO)C(=O)Cc2cc(NC(=O)CCN3CCOCC3)ccc2O[C@@H]1CN(C)C(=O)Nc1ccccc1	3.1
C[C@H]1CN([C@@H](C)CO)C(=O)c2cc(NS(=O)(=O)c3cccs3)ccc2O[C@@H]1CN(C)C(=O)NC1CCCCC1	4.8

Laid out differently: entries from further up
> C[C@@H]1CN([C@@H](C)CO)C(=O)Cc2cc(NC(=O)Cc3cn(C)c4ccccc34)ccc2O[C@@H]1CN(C)Cc1ccc(C(=O)O)cc1
  Ran FRET = 2.1
> Cc1noc(C)c1S(=O)(=O)Nc1ccc2c(c1)CC(=O)N([C@H](C)CO)C[C@@H](C)[C@H](CN(C)C(=O)Nc1ccccc1)O2
  Ran FRET = 3.3
> C[C@@H]1CN([C@@H](C)CO)C(=O)c2cc(NC(=O)NC3CCCCC3)ccc2O[C@H]1CN(C)C(=O)Nc1ccccc1
  Ran FRET = -15

Later entries:
SMILES	Ran FRET
Cc1noc(C)c1S(=O)(=O)Nc1ccc2c(c1)CC(=O)N([C@H](C)CO)C[C@H](C)[C@@H](CN(C)C)O2	-1.5
C[C@@H]1CCCCO[C@H](CN(C)S(=O)(=O)c2ccccc2)[C@H](C)CN([C@@H](C)CO)C(=O)c2cc(NC(=O)Nc3ccccc3)ccc2O1	-4.0
C[C@@H]1CN([C@@H](C)CO)C(=O)c2cc(NC(=O)Nc3ccccc3)ccc2O[C@@H](C)CCCCO[C@@H]1CN(C)S(=O)(=O)c1ccccc1	0.6
COc1ccc(-c2cnc3c(c2)C(=O)N([C@H](C)CO)C[C@H](C)[C@H](CN(C)S(=O)(=O)c2cccs2)O3)cc1	?
C[C@H](CO)N1C[C@H](C)[C@@H](CN(C)C(=O)Nc2cccc3ccccc23)Oc2c(NC(=O)c3ccncc3)cccc2C1=O	0.6
C[C@@H]1CCCCO[C@@H](CN(C)C(=O)Nc2ccc(F)cc2)[C@H](C)CN([C@@H](C)CO)C(=O)c2cc(NS(=O)(=O)c3ccccc3)ccc2O1	3.9
C[C@H]1CN([C@@H](C)CO)C(=O)c2cccc(NS(=O)(=O)c3cccs3)c2O[C@H]1CN(C)S(=O)(=O)c1ccc(Cl)cc1	3.2
CNC[C@@H]1OCCCC[C@H](C)Oc2ccc(NC(=O)Nc3c(C)noc3C)cc2C(=O)N([C@H](C)CO)C[C@@H]1C	-0.8
COc1ccc(S(=O)(=O)Nc2ccc3c(c2)C(=O)N([C@H](C)CO)C[C@@H](C)[C@@H](CN(C)S(=O)(=O)c2c(C)noc2C)O3)cc1	?
Cc1noc(C)c1NC(=O)Nc1ccc2c(c1)C(=O)N([C@H](C)CO)C[C@H](C)[C@H](CN(C)C(=O)Nc1c(C)noc1C)OCCCC[C@@H](C)O2	-0.7
C[C@@H]1CCCCO[C@@H](CN(C)S(=O)(=O)c2ccccc2)[C@H](C)CN([C@H](C)CO)C(=O)c2cc(NS(C)(=O)=O)ccc2O1	3.5
C[C@@H]1CCCCO[C@@H](CN(C)C(=O)Nc2ccc(F)cc2)[C@H](C)CN([C@H](C)CO)C(=O)c2cc(NS(=O)(=O)c3ccccc3)ccc2O1	-0.8

Single entries from the entries so far.
Ran FRET result of C[C@H](CO)N1C[C@H](C)[C@@H](CN(C)C(=O)Nc2cccc3ccccc23)Oc2c(NC(=O)c3ccncc3)cccc2C1=O = 0.6
Ran FRET result of C[C@@H]1CCCCO[C@H](CN(C)S(=O)(=O)c2ccccc2)[C@H](C)CN([C@@H](C)CO)C(=O)c2cc(NC(=O)Nc3ccccc3)ccc2O1 = -4.0
Ran FRET result of CNC[C@@H]1OCCCC[C@H](C)Oc2ccc(NC(=O)Nc3c(C)noc3C)cc2C(=O)N([C@H](C)CO)C[C@@H]1C = -0.8
